Source: PubChem (National Center for Advancing Translational Sciences (NCATS))
Marburg entry inh: qHTS for inhibitors of binding or entry into cells for Marburg Virus; Marburg virus pseudotyped entry inhibition, cell reporter; control for the full effect not named in the record; about a third of the inactives were read at about 46 µM; Potency, µM (titrated, usually from 37.8 µM), inactives show at the top dose activity change, negative = inhibition, hits mostly inhibitors; actives 1.8% (n = 300,000); AID 540276, 2011; active = well fitted inhibition curve with a large enough effect; inconclusive = small, poorly fitted or top-dose-only effect, or effect the other way; inactive = flat fitted curve, though single readings scatter; tested in HEK293 cells; about a fifth of its hits are not listed in these tables; also: % is scaled to controls: 0 for no effect and ±100 for the full control effect; luciferase read-out
SARS PLP yeast: qHTS of Yeast-based Assay for SARS-CoV PLP | S. cerevisiae expressing SARS-CoV PLpro, growth rescue; control for the full effect not named in the record | Potency, µM (highest dose often 32.9 µM), for the others: at the top dose activity, positive = growth rescue | actives 0.19% (n = 330,000) | AID 485353, 2010; also: 0% is about no effect; nearly all actives have a fitted effect of over 55% in size; growth read by luminescence after 48 h
Cruzain noTriton: qHTS Assay for Promiscuous and Specific Inhibitors of Cruzain (without detergent). Cruzipain (Trypanosoma cruzi), P25779. purified cruzain, Z-FR-AMC fluorescence, no detergent. Potency, µM, for inactives: max response, negative = inhibition, hits mostly inhibitors. actives 2.3% (n = 200,000); active = well fitted curve in the direction sought with a large enough effect; inconclusive = small, poorly fitted or top-dose-only effect, or another doubt; inactive = no such curve, though single readings can be large; an effect the other way counts as inactive or inconclusive;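 also: plate controls were enzyme without inhibitor for no effect and buffer without enzyme for full effect; nearly all actives have a fitted effect of over 40% in size; top concentration of the series not given in the record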
Target sequence (P25779 123-467 limits assumed): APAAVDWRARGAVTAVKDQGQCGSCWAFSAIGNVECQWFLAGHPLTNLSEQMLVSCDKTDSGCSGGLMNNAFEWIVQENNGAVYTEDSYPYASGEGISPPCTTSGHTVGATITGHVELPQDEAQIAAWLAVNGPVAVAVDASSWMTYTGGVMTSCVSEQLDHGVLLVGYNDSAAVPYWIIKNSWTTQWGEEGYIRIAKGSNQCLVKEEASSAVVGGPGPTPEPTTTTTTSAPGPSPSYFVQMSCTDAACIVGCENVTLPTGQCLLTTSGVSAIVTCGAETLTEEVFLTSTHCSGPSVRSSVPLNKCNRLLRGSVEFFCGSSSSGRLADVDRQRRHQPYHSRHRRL
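Purified cruzain at 1.5 nM, pre-incubated 15 min with compound at room temperature in 100 mM sodium acetate pH 5.5, 5 mM DTT, 0.00005% Triton X-100. Reaction started with 2 uM Z-FR-AMC; AMC fluorescence increase over 60 s gives rate.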
NS1 function inh: qHTS Assay for Inhibitors of Influenza NS1 Protein Function; S. cerevisiae slowed by influenza A NS1, growth recovery by OD600; Potency, µM (titrated, usually from 46.1 µM), for inactives: at the highest dose activity, positive = more growth; actives 0.4% (n = 270,000); also: actives are rising curves; nearly all actives have a fitted effect of over 50% in size
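Compounds were scored for reversing the slow growth caused by influenza A NS1 in S. cerevisiae, measured by optical density at 600 nm. Assay medium contained 2% galactose at pH 6.0; NS1-free yeast of the same strain were the positive control.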
2A StopGo: High Throughput Screening for Foot and Mouth Disease Virus Antivirals; Potency, µM (highest dose often 57.9 µM), without a hit: at the top dose signal change, negative = less light; human cells with a luciferase reporter of 2A StopGo recoding; control for the full effect not named in the record; actives 1.2% (n = 410,000); active = well fitted falling curve with a large enough effect; inconclusive = small, poorly fitted or top-dose-only effect; inactive = no such curve, though single readings can be large or run the other way; tested in HEK293T cells; also: % is scaled to controls: 0 for no effect and ±100 for the full control effect; nearly all actives have a fitted effect of over 45% in size; luciferase light after 4 h
Cruzain Triton: qHTS Assay for Promiscuous and Specific Inhibitors of Cruzain (with detergent) | Potency, µM, without a hit: max response, negative = inhibition, hits mostly inhibitors | actives 0.43% (n = 200,000) | Cruzipain (Trypanosoma cruzi), P25779 | purified cruzain, Z-FR-AMC fluorescence, 0.01% Triton; active = well fitted curve in the direction sought with a large enough effect; inconclusive = small, poorly fitted or top-dose-only effect, or another doubt; inactive = no such curve, though single readings can be large; an effect the other way counts as inactive or inconclusive;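 also: plate controls were neutral wells for no effect and buffer without enzyme for full effect; nearly all actives have a fitted effect of over 40% in size; top concentration of the series not given in the record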
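Read-out: AMC fluorescence (360 nm excitation, 450 nm emission), four reads over 2 min, first-to-third difference used. Conditions: cruzain 1.5 nM, Z-FR-AMC 2 uM, pH 5.5 acetate, 5 mM DTT, 0.01% Triton X-100.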
RE007 growth inh: qHTS Assay for Inhibitors of the HIV-1 protein Vpr. S. pombe RE007 Vpr strain, BacTiter-Glo ATP luminescence, 24 h; control for the full effect not named in the record. Potency, µM (titrated, usually from 92.2 µM), inactives show at the top dose activity change, negative = less growth. actives 0.21% (n = 360,000). AID 651644, 2012; active = well fitted falling curve with a large enough effect; inconclusive = small, poorly fitted or top-dose-only effect; inactive = no such curve, though single readings can be large or run the other way;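 also: % is scaled to controls: 0 for no effect and ±100 for the full control effect; nearly all actives have a fitted effect of over 50% in size; the assay follows cell death caused by Vpr and the record does not say whether a fall means rescue or toxicity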
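Fission yeast strain RE007, carrying one chromosomally integrated HIV-1 vpr copy, was seeded at OD 0.01 in PMG+AL medium with 23 nL pinned compound. After 24 h at 30 °C and 99% humidity, viability was read by BacTiter-Glo luminescence.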
LASV entry inh: qHTS for Inhibitors of binding or entry into cells for Lassa Virus; Lassa virus pseudotype entry inhibition, cell reporter; control for the full effect not named in the record; Potency, µM (series often up to 37.9 µM), for inactives: top-dose activity change, negative = inhibition, usual class: inhibitors; actives 1.2% (n = 300,000); AID 540256, 2011; active means well fitted inhibition curve with a large enough effect; inconclusive means small, poorly fitted or top-dose-only effect, or effect the other way; inactive means flat fitted curve, though single readings scatter; tested in HEK293 cells; also: % is scaled to controls: 0 for no effect and ±100 for the full control effect; nearly all actives have a fitted effect of over 50% in size; luciferase read-out
* = called active by the depositor; & = joins results of further samples; [ ] = dose if it differs, or a comment. Unless noted, calls follow the shape of the dose curve; as a rule, active means well fitted rising curve with a large enough effect; inconclusive means small, poorly fitted or top-dose-only effect; inactive means no such curve, though single readings can be large or run the other way. Potency is read from the fitted curve at half-maximal effect.

What do the screens show for `Cc1cc(C(c2ccc(O)cc2)c2cc(C)c(O)cc2C)c(C)cc1O`?
Marburg entry inh: inconclusive; SARS PLP yeast: 3%; NS1 function inh: 8%; 2A StopGo: -25%; RE007 growth inh: 11%

How did Cc1cccn2c(=O)c(/C=N/O)c(N3CCCC3)nc12 do in these assays?
Marburg entry inh: 0%; SARS PLP yeast: -2%; Cruzain noTriton: -1%; NS1 function inh: 5%; 2A StopGo: 1%; Cruzain Triton: -1.3%; RE007 growth inh: -8%; LASV entry inh: -11%

Results for Cc1cc(O)c(C(=O)/C=C/c2cccc([N+](=O)[O-])c2)c(=O)o1 ?
Marburg entry inh: inconclusive; SARS PLP yeast: 2%; NS1 function inh: 5%; 2A StopGo: 18µM*; RE007 growth inh: -3%; LASV entry inh: 12%[46.1 µM]

Results for Cc1ncoc1C(=O)Nc1cccc(Cl)c1C ?
Marburg entry inh: 18%; SARS PLP yeast: 1%; Cruzain noTriton: -7%; NS1 function inh: -4%; 2A StopGo: 18%; Cruzain Triton: 4.8%; RE007 growth inh: -5%; LASV entry inh: inconclusive

How did Cc1nn(C)c(Oc2ccccc2)c1[N+](=O)[O-] do in these assays?
Marburg entry inh: 26%; SARS PLP yeast: 9%; Cruzain noTriton: -4%; NS1 function inh: 2%; 2A StopGo: -7%; Cruzain Triton: 3.3%; RE007 growth inh: 11%[3.69 µM]; LASV entry inh: 2%

How did Cn1c(O)c(N=NC(=O)CNC(=O)/C=C/c2ccccc2)c2ccccc21 do in these assays?
SARS PLP yeast: -1%; NS1 function inh: 7%; 2A StopGo: -14%; RE007 growth inh: -1%

What do the screens show for `Cc1csc2nc(COC(=O)c3ccc(F)cc3)cc(=O)n12`?
Cruzain noTriton: -12%; 2A StopGo: inconclusive; Cruzain Triton: -6.6%; LASV entry inh: -3%[46.1 µM]

Results for CCCc1cc(=O)[nH]c(SCC(=O)c2c(N)n(C)c(=O)n(C)c2=O)n1 ?
Marburg entry inh: 4%; SARS PLP yeast: -6%; Cruzain noTriton: -8%; NS1 function inh: -1%; 2A StopGo: -11%; Cruzain Triton: -4.2%; RE007 growth inh: 2%; LASV entry inh: -6%

How did C=CCNc1nc(N)c([N+](=O)[O-])c(NC2CCCCC2)n1 do in these assays?
Marburg entry inh: -13%[46.1 µM]; SARS PLP yeast: -6%; NS1 function inh: -47%; 2A StopGo: -27%; RE007 growth inh: 8%; LASV entry inh: 3%[46.1 µM]

What do the screens show for `Cc1ccc(-c2nnn(CC(=O)N3CCC(C)CC3)n2)o1`?
Marburg entry inh: 24%[46.1 µM]; SARS PLP yeast: 1%; Cruzain noTriton: 4%; NS1 function inh: 3%; 2A StopGo: 26%; Cruzain Triton: 4.3%; RE007 growth inh: 7%; LASV entry inh: 2%

Results for COc1cc2c(cc1OC)C(c1cccs1)CC(=O)N2 (stereo not drawn) ?
Marburg entry inh: -2%; Cruzain noTriton: -9%; NS1 function inh: 7%; 2A StopGo: 0%; Cruzain Triton: 2.4%; RE007 growth inh: 0%[3.69 µM]; LASV entry inh: -1%

What do the screens show for `CC(=O)Nc1nonc1-n1nnc(C(=O)NCc2ccccc2)c1C`?
Marburg entry inh: 0%; SARS PLP yeast: 3%; Cruzain noTriton: 12%; NS1 function inh: 8%; 2A StopGo: 7%; Cruzain Triton: 8.4%; RE007 growth inh: 2%; LASV entry inh: -11%

What do the screens show for `CCOc1ccc(NC(=O)c2ccccn2)cc1`?
Marburg entry inh: 0.32µM*; SARS PLP yeast: -52%; Cruzain noTriton: -1%; NS1 function inh: -4%; 2A StopGo: 3.2µM*; Cruzain Triton: -3.9%; RE007 growth inh: inconclusive; LASV entry inh: 0.28µM*

Results for O=C1NC(c2ccccc2)N=C2Oc3ccccc3C=C12 (stereo not drawn) ?
Marburg entry inh: -30%; 2A StopGo: -2%; RE007 growth inh: -5%; LASV entry inh: inconclusive

How did CCOC(=O)c1sc(N/N=C/c2cccc(C)c2)nc1C do in these assays?
Marburg entry inh: -6%; SARS PLP yeast: 9%; Cruzain noTriton: inconclusive; NS1 function inh: 1%; 2A StopGo: 27%; Cruzain Triton: 1.4µM*; RE007 growth inh: -17%; LASV entry inh: inconclusive

What do the screens show for `COC(=O)C1CCN(C(=O)COC(=O)c2ccc3[nH]c4c(c3c2)CCCC4)CC1`?
Marburg entry inh: -3%; SARS PLP yeast: 0%; 2A StopGo: 10%; RE007 growth inh: 7%; LASV entry inh: inconclusive

How did COc1ccc(-c2cc(C(F)(F)F)nc(SCC(=O)Nc3ccc4c(c3)OCO4)n2)cc1 do in these assays?
Marburg entry inh: 11%; SARS PLP yeast: 7%; Cruzain noTriton: inconclusive; NS1 function inh: 12%; 2A StopGo: -20%; Cruzain Triton: -0.4%; LASV entry inh: 0%

Results for C/C(N)=C(/C#N)C(=O)COC(=O)C1CCN(C(=O)c2ccc(Cl)cc2)CC1 ?
Marburg entry inh: -2%[46.1 µM]; SARS PLP yeast: 0%; 2A StopGo: -20%; RE007 growth inh: -12%

How did Cc1ccc(CN2CCN(/N=C/c3ccc(C(=O)O)cc3)CC2)c(C)c1 do in these assays?
Marburg entry inh: -37%[46.1 µM]; SARS PLP yeast: 1%; NS1 function inh: -3%; 2A StopGo: -17%; RE007 growth inh: -9%; LASV entry inh: -23%[46.1 µM]

What do the screens show for `CCc1nc(C)cn1S(=O)(=O)c1cc(F)ccc1OC`?
Marburg entry inh: 3%[46.1 µM]; SARS PLP yeast: 1%; NS1 function inh: 2%; 2A StopGo: -4%; RE007 growth inh: -2%; LASV entry inh: -13%[46.1 µM]

Results for CN(C)CCCNCCCNC(=O)c1ccncc1 ?
Marburg entry inh: 2%&-1%; SARS PLP yeast: 2%; Cruzain noTriton: 6%; NS1 function inh: 6%; 2A StopGo: -12%; Cruzain Triton: 3.5%; RE007 growth inh: 2%; LASV entry inh: 3%

Results for Nn1c(COc2cccc(Cl)c2)nc2ccccc2c1=O ?
Marburg entry inh: 7%; SARS PLP yeast: -7%; Cruzain noTriton: 2%; NS1 function inh: 4%; 2A StopGo: 3%; Cruzain Triton: -4.9%; RE007 growth inh: 16%; LASV entry inh: 5%

What do the screens show for `Clc1ccc(Cn2nnc(-c3ccccc3)n2)cc1`?
Marburg entry inh: -10%; SARS PLP yeast: -34%; Cruzain noTriton: -9%; NS1 function inh: -11%; 2A StopGo: 31%[activator]; Cruzain Triton: -3.6%; RE007 growth inh: -16%; LASV entry inh: 5%

What do the screens show for `c1ccc2c(c1)NCCS2`?
Marburg entry inh: inconclusive; SARS PLP yeast: 0%; NS1 function inh: inconclusive; 2A StopGo: 49%[activator]; RE007 growth inh: -5%; LASV entry inh: -3%

How did OC(COCc1cccs1)CN1CCCCCC1 (stereo not drawn) do in these assays?
Marburg entry inh: 12%; SARS PLP yeast: 10%; Cruzain noTriton: 10%; NS1 function inh: inconclusive; 2A StopGo: -22%; Cruzain Triton: 0.3%; RE007 growth inh: -6%; LASV entry inh: 4%

Results for COc1ccc(C(=O)N2CCN(c3ccc(C)cc3C)CC2)cc1OC ?
Marburg entry inh: -12%; SARS PLP yeast: 5%; Cruzain noTriton: inconclusive; NS1 function inh: -36%; 2A StopGo: 0%; Cruzain Triton: -2.0%; RE007 growth inh: 4%; LASV entry inh: -13%

How did CCCCCc1ccc(OCCCC[n+]2ccc(C)cc2)c(CCCCC)c1 do in these assays?
Marburg entry inh: inconclusive; SARS PLP yeast: -6%; NS1 function inh: -59%; 2A StopGo: inconclusive; RE007 growth inh: inconclusive; LASV entry inh: 4.5µM*

Results for COc1ccccc1N1CCN(C2CCCN(C(=O)c3ccoc3C)C2)CC1 (stereo not drawn) ?
Marburg entry inh: -17%; SARS PLP yeast: -1%; NS1 function inh: -3%; 2A StopGo: -21%; RE007 growth inh: 6%; LASV entry inh: -6%

Results for COCCCN(C(=O)CCOc1ccc(C(C)(C)C)cc1)c1c(N)n(Cc2ccccc2)c(=O)[nH]c1=O ?
Marburg entry inh: -26%[46.1 µM]; SARS PLP yeast: -5%; 2A StopGo: -18%; RE007 growth inh: 7%; LASV entry inh: -28%

How did CCCCN1CC(=O)N2[C@H](c3ccc(OC)cc3)[C@@H]3C(=O)N(CC)C(=O)[C@@H]3[C@]2(C)C1=O do in these assays?
SARS PLP yeast: 0%; NS1 function inh: 19%; 2A StopGo: -1%; RE007 growth inh: -9%

What do the screens show for `COCC(=O)N1CCCC(C(=O)c2ccc(-c3ccccc3)cc2)C1` (stereo not drawn)?
SARS PLP yeast: -12%; NS1 function inh: -34%; 2A StopGo: 24%; RE007 growth inh: -1%

Results for Fc1ccc(CSc2nnc(-c3cccnc3)n2Cc2ccco2)cc1 ?
Marburg entry inh: -2%; SARS PLP yeast: 4%; Cruzain noTriton: -3%; NS1 function inh: 0%; 2A StopGo: -16%; Cruzain Triton: -3.7%; RE007 growth inh: 4%; LASV entry inh: 32%

What do the screens show for `COC(=O)c1ccccc1NC(=O)CSc1c2c(nc3ccc(Cl)cc13)CCCC2`?
Marburg entry inh: 0%[46.1 µM]; Cruzain noTriton: -5%; 2A StopGo: inconclusive; Cruzain Triton: -3.9%; LASV entry inh: 0%[46.1 µM]

What do the screens show for `CC(C)NC(=O)C(c1ccc(F)cc1)N(C(=O)CCC(=O)Nc1ccccn1)c1cccc(F)c1` (stereo not drawn)?
Marburg entry inh: inconclusive; SARS PLP yeast: 0%; NS1 function inh: 8%; 2A StopGo: -3%; RE007 growth inh: 5%; LASV entry inh: inconclusive

Results for O=C(N/N=C/c1cn(-c2cccs2)nc1-c1ccccc1)c1ccccc1Cl ?
Marburg entry inh: inconclusive; SARS PLP yeast: -8%; Cruzain noTriton: inconclusive; NS1 function inh: inconclusive; 2A StopGo: 6%; Cruzain Triton: -6.9%; RE007 growth inh: -6%; LASV entry inh: inconclusive

How did COc1cccc(N2CC(NC(=O)/C=C\c3ccc4c(c3)OCO4)CC2=O)c1 (stereo not drawn) do in these assays?
Cruzain noTriton: -30%; 2A StopGo: -24%; Cruzain Triton: -10%; LASV entry inh: -4%[46.1 µM]

Compounds were not picked by outcome, and some 4.6% of all compounds hit somewhere here.
